Assay outcomes deposited in PubChem by ICCB-Longwood Screening Facility, Harvard Medical School.
VACV E9 pol inh: blocks vaccinia virus processive DNA synthesis. in vitro processive DNA synthesis, absorbance read-out; stronger effect = lower value; some inactives read as strong as hits. hit rate 0.94% among 46,000. normalized absorbance, % (concentration not given with the values);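 active = replicate mean up to 90% and picked by the depositor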;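 note: 100% = median of the test wells of a plate; 100 nL library stock went into each well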
* hit, by the source's call. This is a subset; count on the stated rates, not on these rows.

SMILES	VACV E9 pol inh
CCc1ccc(/C=C2\Sc3ccccc3N(CC(=O)O)C2=O)cc1	66*
Cc1ccc(N2CC34C=CC(O3)C(C(=O)O)C4C2=O)cc1 (stereo unspecified)	100
NC(=S)c1cnn2c(C(F)(F)F)cc(C(F)(F)F)nc12	100
CCOC(=O)C1=C(O)/C(=C/c2cccs2)SC1=NC(=O)c1ccc(C)cc1	100
O=C(O)CN1C(=O)/C(=C/c2ccccc2)SC1=S	90
S=c1nccc(-c2ccc(-c3cccs3)s2)[nH]1	98
CN(CC(O)COCC1COc2ccccc2O1)C1CCCCC1 (stereo unspecified)	101
CCOC(=O)c1cccc(NC(=O)Cn2ncc3c(C)n(Cc4ccc(F)cc4)c(C)c3c2=O)c1	96
O=C(O)CCC(=O)Nc1ccc(-c2cn3ccccc3n2)cc1	103
OC(CN1CCN(CC(O)C(F)(F)F)CC1)C(F)(F)F (stereo unspecified)	74
Cc1c(C(=O)N(C)C)sc2c1c(=O)n(Cc1ccccc1)c(=O)n2Cc1ccccc1C#N	102
N#Cc1cnn2cc(CCCO)c(C(F)(F)F)nc12	94
COc1ccc2oc(=O)c(C(=O)NC3CCCC3)cc2c1	110
Cc1nc(SCCO)c2c3c(sc2n1)CCCC3	94
COCCN1C(=O)/C(=C/c2cn(-c3ccccc3)nc2-c2ccccc2)SC1=S	115
O=C(Nc1ccccc1)C1CC2c3ccccc3C1c1ccccc12 (stereo unspecified)	103
CCc1nc2ccccc2n1CC(=O)Nc1ccccc1C#N	90
CCOC(=O)CSc1nc2c([nH]c3ccccc32)c(=O)n1-c1ccc(F)cc1	100
COc1ccc2c(c1)SC1=NC(=O)C(Cc3ccccc3)C(=O)N12 (stereo unspecified)	99
CN(C)/N=C/c1ccc(OC(=O)c2ccc(Br)cc2)cc1	93
O=C(Nc1nc(-c2ccccc2)cs1)c1cc(=O)c2ccccc2o1	100
Cc1ccc(S(=O)(=O)N2CCCN(C)CC2)cc1	92
CCCN1C(=O)C[n+]2ccccc2C1C(=O)Nc1ccccc1C (stereo unspecified)	104
COc1cccc(OC)c1C(=O)N[C@@H]1C(=O)N2[C@@H]1SC(C)(C)[C@@H]2C(=O)O	98
CCC(Sc1nc2cc3c(cc2c(=O)n1Cc1ccco1)OCO3)C(=O)NCc1ccc(C)cc1 (stereo unspecified)	91
CC1(C)Cc2c(sc(NC(=O)C(c3ccccc3)c3ccccc3)c2C#N)CO1	99
CCCCC1CCC(C(=O)N(Cc2sccc2C)C2CCS(=O)(=O)C2)CC1 (stereo unspecified)	101
Cc1ccc(C(=O)N/C(=C\c2ccco2)C(=O)N2CCCC2)cc1	99
COC(=O)c1sc2ccccc2c1NC(=O)c1ccc(S(=O)(=O)N(C)c2ccccc2)cc1	101
S=C(Nc1cccc(Cl)c1)N1CCc2ccccc2C1	107
O=C(NCCC1=CCCCC1)c1cc2cc(Cl)ccc2oc1=O	100
O=C1S/C(=C/c2ccccc2F)C(=O)N1CN1CCCCC1	98
CN1CCC2(N3CCOCC3)C(C1)N=NN2c1cc(C(F)(F)F)cc(C(F)(F)F)c1 (stereo unspecified)	104
C=CCNC(=S)N1CCc2c([nH]c3ccccc23)C1C(F)(F)F (stereo unspecified)	98
Cc1cc(NC(=O)C(F)(F)F)n(-c2ccccc2)n1	101
CC1=NN(C(N)=S)C(=O)C1C(c1ccccc1)C(C#N)C#N (stereo unspecified)	98
Cc1ccc(CSc2ncnc3sc4c(c23)CCC4)cc1	100
COc1ccc(C2C3CCc4ccccc4C3=NN2CCOC(=O)C2CC2)cc1 (stereo unspecified)	101
Cc1cc(C)c2cc(C(=O)N3CCN(c4ncccc4C(F)(F)F)CC3)[nH]c2c1	101
Cc1cc(C)n(C(=O)Nc2ccc(Cl)cc2)n1	100
c1ccc(CN2CCC(c3ccco3)=N2)cc1	104
C/C(=N\O)C(C)Oc1ccc(Cl)cc1 (stereo unspecified)	83
Cc1cccc(-n2cnc(C(=O)N3CCN(c4ccccc4)CC3)c2)n1	115
c1ccc(-c2ccc(-c3ccccn3)nc2)nc1	101
S=C(Nc1ccccc1)N1CCN(c2ccc3nnc(-c4ccccc4)n3n2)CC1	100

An excerpt from further up:
SMILES	VACV E9 pol inh
c1ccc(-c2ccc(-c3ccccn3)nc2)nc1	101
S=C(Nc1ccccc1)N1CCN(c2ccc3nnc(-c4ccccc4)n3n2)CC1	100

Other compounds:
SMILES	VACV E9 pol inh
O=C(CCC(=O)N1CCOCC1)Nc1c(F)c(F)nc(N2CCOCC2)c1F	100
CC(=O)N(Cc1ccccc1)c1ccccc1C(=O)O	89
O=C(O)c1ccc(-n2nnnc2Oc2ccccc2C(=O)N2CCOCC2)cc1	87
CNc1nc2ccccc2[nH]1	101
O=C1C(=Nc2cccc(C(F)(F)F)c2)c2ccccc2N1CN1CCc2ccccc2C1	100
CCS(=O)(=O)c1nc(S(=O)(=O)c2ccc(Cl)cc2)c(NCCN2CCOCC2)s1	102
CC(c1ccco1)N(C(=O)c1cccs1)c1ccccn1 (stereo unspecified)	98
CN(C)Cc1c(O)ccc2c(=O)c(-c3ccc4c(c3)OCCO4)coc12	102
CCN(C(=O)CN1C(=O)N(c2ccc(C)c(Cl)c2)S(=O)(=O)c2ccccc21)c1ccccc1	99
CCOC(CNc1ccc2nnc(-c3ccccc3)n2n1)OCC	103
c1ccc(-c2ncc(CN3CCN(c4ccccn4)CC3)[nH]2)cc1	112
CC(=O)Nc1ccc(C(=O)OCC(=O)N2CCCC2)cc1	95
CSc1ncnc2c1oc1ccccc12	100
c1ccc(CCCN2CCNCC2)cc1	102
Cc1nc(NC2=NCCC(=O)N2)nc2ccccc12	96
Cc1ccc(C=Nc2ccc(Oc3ccccc3)cc2)s1	101
Cc1oc(C(C)(C)C)cc1C(=O)N1CCN(C(c2ccccc2)c2ccccc2)CC1	99
O=S(=O)(Cc1ccc(Cl)cc1)N1CCCCCC1	118
CC(=O)N/C(=C/c1ccccc1)C(=O)Nc1ccc(I)cc1	100
CCCCc1[nH]nc2c1C1(CCCCC1)C(C#N)=C(N)O2	100
CCN(CC)CCNC1=NCCn2c1cc1cc(OC)ccc12	86
O=C(COc1ccccc1)Nc1c(-c2cccs2)nc2ccccn12	99
O=C1c2cccc(OCc3ccc(Cl)cc3)c2CCN1Cc1cccnc1	98
O=C(COC(=O)C1(c2ccc(F)cc2)CCCC1)NC1CCCC1	102
Cc1ccc(Oc2ncnc3sccc23)cc1	100
COc1ccccc1N1C(N)=NC(N)=NC12CCCCC2	100
CC1(C)C2CCC1(C)C(NC(=O)c1cccc(C(F)(F)F)c1)C2 (stereo unspecified)	107
N#CCc1nnc2n1-c1ccccc1SC2	95
O=C(O)COc1ccccc1/C=C1/SC(=S)N(Cc2ccco2)C1=O	87
CCOc1ccc(NC(=O)c2ccnc(N3CCC(C(=O)N4CCOCC4)CC3)c2)cc1	105

Reprinted at random: four compounds from above.
SMILES	VACV E9 pol inh
O=S(=O)(Cc1ccc(Cl)cc1)N1CCCCCC1	118
COc1ccccc1N1C(N)=NC(N)=NC12CCCCC2	100
CCN(CC)CCNC1=NCCn2c1cc1cc(OC)ccc12	86
O=C(COc1ccccc1)Nc1c(-c2cccs2)nc2ccccn12	99

Following part:
SMILES	VACV E9 pol inh
CC(C)Sc1nc2ccccc2n1CC(=O)O	96
c1ccc(CNc2ncnc3c2cnn3-c2ccccc2)cc1	100
COc1ccccc1N=Cc1c(O)n(-c2ccccc2OC)c(=O)[nH]c1=O	100
CC(CN1CCN(Cc2ccccc2)CC1)N(C(=O)c1ccc(C(C)(C)C)cc1)c1ccccn1 (stereo unspecified)	95
CCC(Sc1nnnn1-c1ccccc1)C(=O)Nc1sc2c(c1C#N)CCCC2 (stereo unspecified)	100
Cc1cc(NC(=O)CSc2cn(C)c3ccccc23)no1	101
Cc1cc2c(C(C)C)c(O)c(O)c(C=O)c2c(O)c1-c1c(C)cc2c(C(C)C)c(O)c(O)c(C=O)c2c1O	18*
S=C(c1cn(CCOc2ccccc2)c2ccccc12)N1CCCC1	100
O=C(Oc1ccccc1)c1ccc(=O)oc1	100
COc1cc(/C=N/S(=O)(=O)c2ccccc2)cc(OC)c1O	66

Arranged by heavy-atom count (high to low): six of the compounds above
SMILES	VACV E9 pol inh
CCC(Sc1nnnn1-c1ccccc1)C(=O)Nc1sc2c(c1C#N)CCCC2 (stereo unspecified)	100
O=C(Nc1nc(-c2ccccc2)cs1)c1cc(=O)c2ccccc2o1	100
Cc1ccc(C(=O)N/C(=C\c2ccco2)C(=O)N2CCCC2)cc1	99
N#Cc1cnn2cc(CCCO)c(C(F)(F)F)nc12	94
O=C(O)CN1C(=O)/C(=C/c2ccccc2)SC1=S	90
Cc1cc(C)n(C(=O)Nc2ccc(Cl)cc2)n1	100
